TAR Tat displ: HIV-1 TAR-Tat binding disruption. HIV-1 TAR RNA, Tat peptide displacement FRET; hits give high values. AID 1259389. 100,000 compounds, 0.6% hits. z-score (test concentration not listed);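 also: score is relative to mean and SD of negative controls; some compounds called inactive have numbers as strong as hits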
CDC25B-CDK2 inh: human CDC25B-CDK2/CyclinA binding inhibition | HTRF CDC25B-CDK2/CyclinA binding, anti-His/anti-Flag; hits give high values | P30305+P24941 | z-score (no concentration beside the values) | 94,000 compounds, 0.72% hits;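 also: score is relative to mean and SD of negative controls; strong numbers were not always called active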
An asterisk follows results filed as active; . = not tested or not shown.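 The calls were made as follows: active = z-score from 3 up in half or more of its runs; inactive = the rest.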

Compound,TAR Tat displ,CDC25B-CDK2 inh
CCOC(=O)CNC(=O)N1Cc2c(sc3c2CCCC3)-n2cccc2C1C(C)C (centres undefined),-0.37,.
COCCCN1C(=O)C(=O)/C(=C(\O)c2ccc(C)cc2)C12C(=O)N(C)c1ccccc12 (centres undefined),0.1,1.1
Cc1[nH]nc(-c2cccs2)c1C(=O)NN,.,-1.6
O=C(COCc1cc(-c2ccc(F)cc2)on1)N1CCCC1,0.69,.
COc1ccc(S(=O)(=O)N(C)Cc2nc(-c3ccc(Cl)cc3)no2)cc1,2.3,-1.9
O=C(c1cc(-c2ccc3c(c2)OCCO3)on1)N(Cc1ccco1)Cc1ccco1,0.52,0.58
CC(=O)N1c2ccccc2CC1C(=O)NCc1ccco1 (centres undefined),0.56,.
CCn1cc(C(=O)NC2CCC(C)CC2)c(=O)c2cc(S(=O)(=O)N(C)C3CCCCC3)ccc21 (centres undefined),1.7,-1.9
O=C(CSCCc1ccccn1)Nc1cccnc1,0.8,.
Cc1ccc(CSc2ncccc2C(=O)O)cc1,0.26,.
COCCN(Cc1ccco1)C(=O)c1cc2c(s1)-c1ccc(Cl)cc1SC2,-0.04,0.61
O=C(CCSCc1cnn(-c2ccccc2)c1-n1cccc1)NCC1COCCO1 (centres undefined),3.2,-1.2
O=S1(=O)CC(O)C(S(=O)(=O)c2ccc(Cl)cc2)C1 (centres undefined),.,-1.1
COC(=O)c1c(NC(C)=O)c2c(C)c(C)sc2n1Cc1nc(-c2cccs2)oc1C,-0.19,0.91
Cc1c(C(=O)N2CCOCC2)oc2ccc3c(c12)C(O)CC(C)(C)O3 (centres undefined),-0.13,.
CC(=O)NCCNC(=O)CCc1nc2sc3c(c2c(=O)[nH]1)CCCCC3,6*,.
O=C(Nc1ccc(F)cc1Cl)C1CCN(c2ncnc3c2nc2n3CCCCC2)CC1,0.53,.
O=C(CCc1nnc2ccc(NCCCN3CCCC3=O)nn12)Nc1ccc(F)cc1F,-0.18,.
COc1ccc(OC)c(C2=NOC(C(=O)N(C)C3CCCCC3)C2)c1 (centres undefined),3.4,-0.5
O=c1ccc2cc(S(=O)(=O)Nc3ccc(Cl)cc3)ccc2[nH]1,1.5,.
O=C(Nc1ccc(Cl)cn1)c1cc(-c2cccnc2)nc2ccccc12,0.15,.
CC(C)CNc1sc(S(C)(=O)=O)nc1S(=O)(=O)c1ccc(Cl)cc1,0.65,-0.86
CN1C(=O)CN(C2CCCCC2)C1=O,1.4,-1.3
CC(C)CCNC(=O)c1c(O)c2c([nH]c1=O)CCCC2,1.9,.
Brc1ccc(CN2CCc3nc(Nc4ccc5c(c4)OCCO5)ncc3C2)cc1,1.4,.
CCCSCCCN1C(=O)c2ccc(-c3ccco3)n2CC1(C)C(=O)NC1CCCC1 (centres undefined),-0.82,.
COCC(C)Nc1ncnc2c1cnn2-c1ccc(C)c(Cl)c1 (centres undefined),1.7,.
O=S(=O)(NCC(c1ccccc1)N1CCc2ccccc21)c1ccc(Cl)cc1 (centres undefined),0.48,-1.2
Cc1cc(C)c2c(-n3cccc3)nn(CC(=O)NCCCN3CCCC3=O)c2n1,1.2,.
O=C(CSc1nnnn1-c1ccccc1)Nc1cccc(F)c1,0.36,-1.4
Cc1ccc(CNc2nc(Nc3ccccc3C)c3cnn(C)c3n2)cc1,-0.29,.
O=C(CCC1CCCC1)Nc1nnc2n1CCS2,0.39,.
Cc1noc(C)c1S(=O)(=O)N1CCCC(C(=O)NC2CCCCC2)C1 (centres undefined),-0.07,-3.5
CCOC(=O)C1=C(C)NC(C)=C(C(=O)OCC)C1c1c(F)c(F)c(F)c(F)c1F,.,-0.69
O=S(=O)(NCC1CCCO1)c1ccc2[nH]c3c(c2c1)CCCCC3 (centres undefined),0.36,.
CC1(C)CC(=O)C2=C(C1)N=C1c3ccccc3C(=O)C1C2c1ccc(Br)cc1 (centres undefined),-3.5,-1.3
Cc1noc2ncnc(N3CCCC(C(=O)N4CCCC4)C3)c12 (centres undefined),-0.34,.
Nc1nc(S(=O)(=O)Cc2ccc(F)cc2)ns1,0.12,-2
COc1ccc(Nc2nc(Cl)nc(Nc3ccc(OC)c(OC)c3)n2)cc1OC,-0.73,-2.2
CN(C)CCN(Cc1ccccc1)S(=O)(=O)c1ccc2c(c1)C(C)(C)C(=O)N2C,1.6,.
Cc1ccc2c(c1)-c1ncc(C(=O)c3cc(Br)ccc3O)cc1CO2,0.16,-1
CCOC(=O)N1CCC(NC(=O)c2cc3c(=O)oc4ccccc4c3s2)CC1,1.4,3
Cc1nc(N2CC(C)OC(C)C2)c2c3c(sc2n1)CCCC3 (centres undefined),1,.
Cn1cccc1Cc1nnc(SCC(=O)N2CCc3ccccc32)n1-c1ccc(Cl)cc1,-0.64,-1.6
CCOC(=O)c1ccc(N2CCOCC2)c(NC(=S)Nc2cccc(SC)c2)c1,.,-0.67
O=C(Cn1ncn2cccc2c1=O)N1CCc2ccccc21,2.3,-1.5
Cc1cc(NC(=O)C(=O)NCC2OCCc3ccccc32)no1 (centres undefined),-1.1,-0.81
O=C1c2nccnc2C(=O)N1c1cccc2ccccc12,1.6,-2.1
Cc1cc2cc(CCNC(=O)CC(C)(C)C)c(=O)[nH]c2cc1C,.,-1.1
CC1CC(C)CN(CCCN2C(=O)c3ccc(-c4ccco4)n3CC2(C)C(=O)NC2CCCC2)C1 (centres undefined),0.35,.

The results go on:
Compound,TAR Tat displ,CDC25B-CDK2 inh
O=C1c2ccccc2C2(O)NC(=S)NC12O (centres undefined),.,-0.23
Cc1cc(O)c(C(=O)/C=C/N(C)C)c(=O)o1,.,-2.5
CCOC(=O)C1=C(CC)NC2=C(C(=O)CC(C)(C)C2)C1c1ccc(OC)cc1OC (centres undefined),2.3,-2
CC(C)NC(=O)c1ccc2c(Cl)c3c(nc2c1)CCC3,.,-2.6
Clc1ccc(C2NCCc3c2[nH]c2ccccc32)cc1 (centres undefined),1.6,-1.4
Cc1cc(C)c(NC(=O)C(C)n2sc3ccccc3c2=O)c(C)c1 (centres undefined),2.1,-0.11
CNC(=O)C(=O)NCC(c1ccco1)S(=O)(=O)c1ccccc1 (centres undefined),1.3,.
CCOC(=O)c1oc2ccc(S(=O)(=O)N3CCN=C3N3CCN(CC)CC3)cc2c1C,-0.15,.
O=C(CSc1nnnn1-c1ccccc1)Nc1ncc2c(n1)CC(c1ccco1)CC2=O (centres undefined),-4.7,15*
O=C(O)c1ccccc1C(=O)c1ccccc1,2.2,.
CC(C)CCNC(=O)CCc1nnc2n(CC(C)C)c(=O)c3ccccc3n12,0.37,-1.4
Cc1nn(-c2ccc(F)cc2)c(-n2cccc2)c1C(=O)N1CCCC1,0.47,.
CCOC(=O)N1CCN(S(=O)(=O)c2ccc(C)cc2)C1C(C)C (centres undefined),-0.39,-1.4
CCOC(=O)c1cc(NC(=O)OC)c(C)nc1C,1.4,-2.5
COCCNC(=O)Cn1ncn2cccc2c1=O,-0.5,-0.7
COC(=O)c1cc(OC(=O)c2nn(-c3ccccc3)nc2C)n(-c2ccccc2)n1,.,-2.6
Cn1cc(C(=O)N2CCc3ccccc32)c(=O)c2cc(S(=O)(=O)N3CCCC3)ccc21,.,-0.76
O=C(O)/C=C/c1ccc(Cn2ccnc2)cc1,-0.78,.
CCN(CC)c1ccc2nnc(CCC(=O)Nc3cc(F)ccc3F)n2n1,0.33,.
CS(=O)(=O)n1nc(-c2ccc(Cl)cc2)nc1N,.,-0.81
Cc1nnc(NC(=O)CN2C(=O)c3cccnc3Sc3ccccc32)s1,1.3,-0.74
COc1ccc(C2C=C(c3cccs3)Nc3nc(-c4ccccc4)cn32)cc1 (centres undefined),-5.2,-1.4
CCCCNC(=O)CN1c2ccc(Br)cc2-c2ccccc2S1(=O)=O,0.24,-0.34
CCOC(=O)c1c(NC(=O)C(Cl)(Cl)Cl)nc(SC)n1-c1ccccc1OC,.,1.1
CCCOc1ccc(-c2nc(OCC)c3ccccc3n2)cc1,.,0.09

Next part; the last 2 above are carried over.
Compound,TAR Tat displ,CDC25B-CDK2 inh
CCOC(=O)c1c(NC(=O)C(Cl)(Cl)Cl)nc(SC)n1-c1ccccc1OC,.,1.1
CCCOc1ccc(-c2nc(OCC)c3ccccc3n2)cc1,.,0.09
Cc1cc(C)c(-c2cc(C(F)(F)F)on2)c(=O)[nH]1,1.6,-0.8
Cc1ccc(N2CC(C(=O)Nc3nnc4n3CCS4)CC2=O)cc1 (centres undefined),1.1,.
COC(=O)c1c(-c2c(Cl)cccc2Cl)noc1C(=O)N/N=C/c1ccc([N+](=O)[O-])s1,.,1.1
Cn1c(=O)n(CC(=O)N2CCCC2)c(=O)c2cc(S(=O)(=O)NC3CCCc4ccccc43)ccc21 (centres undefined),3,.
CN(C(=O)CSc1ccc(C(F)(F)F)cn1)c1c2c(nn1C)CCCC2,.,-0.35
Cc1n[nH]c(C)c1Cc1cc(C(=O)NCC2CCCO2)sc1N1CCOCC1 (centres undefined),0.23,.
COc1ccc(-c2noc(-c3nnn(-c4ccc(Br)cc4F)c3N)n2)cc1,-0.66,.
CCOC(=O)N1CCC(NC(=O)Cn2ncc3ccsc3c2=O)CC1,0.38,-1.7
O=C(c1ccc2c(c1)OCCO2)N1CCN(c2nc3c(F)cc(F)cc3s2)CC1,0.95,.
O=c1[nH]c2sc3c(c2c2ncnn12)CCCC3,.,-3.4
Cc1ccc(Cn2c(NCc3ccco3)nc3c2c(=O)n(C)c(=O)n3C)cc1,1.1,-0.09
O=c1c(NCCC2=CCCCC2)nccn1-c1ccc(Br)cc1,-4,.
COc1ccc2[nH]c(C)c(CN(C)C3CCCCC3)c(=O)c2c1,-0.83,-1.6
CCSCCNC(=O)c1cccc(-n2cnnc2)n1,0.27,.
CN1CCN(C(=O)CCc2nc(-c3ccccn3)no2)CC1,.,-0.33
CN(C)c1ccc(N2CC(O)=C(c3nc4ccccc4[nH]3)C2=N)cc1,2.3,-2.1
Clc1cccc(N2CCN(c3ncnc4c3cnn4-c3ccccc3)CC2)c1,1.4,.
Cc1ccc(S(=O)(=O)c2nc(-c3ccccc3)oc2S(C)(=O)=O)cc1,-1.4,-2.7
COc1ccc(Cl)cc1NC(=O)C(=O)NCC1CCCO1 (centres undefined),0.12,-1.1
CCn1cc(S(=O)(=O)c2ccccc2)c(=O)c2cc(F)c(N3CCCC3)cc21,1.5,.
CC1(C)S[C@@H]2[C@H](NC(=O)[C@@H](N)c3ccc(O)cc3)C(=O)N2[C@H]1C(=O)O,0.74,.
O=C1CCCN1CCCNc1nc(-c2ccccc2)no1,0.68,.
O=C(c1ccc2nc(N3CCCCC3)sc2c1)N1CCN(c2ncccn2)CC1,0.04,0.06
COc1ccc(NS(=O)(=O)c2ccc3c(c2)NC(=O)CCS3)cc1,0.85,.
CCN(C(=O)c1noc2c1COc1ccccc1-2)c1cccc(Cl)c1,0.25,-1.4

Entries of single compounds as entered above:
O=C(CSCCc1ccccn1)Nc1cccnc1 is listed as TAR Tat displ: 0.8; CDC25B-CDK2 inh: .
Cc1ccc(S(=O)(=O)c2nc(-c3ccccc3)oc2S(C)(=O)=O)cc1 is listed as TAR Tat displ: -1.4; CDC25B-CDK2 inh: -2.7
CC(=O)NCCNC(=O)CCc1nc2sc3c(c2c(=O)[nH]1)CCCCC3 is listed as TAR Tat displ: 6*; CDC25B-CDK2 inh: .

The list continues.
Compound,TAR Tat displ,CDC25B-CDK2 inh
Cc1c(C)n(CC(O)CNC(C)(C)C)c2ccccc12 (centres undefined),.,-3.4
Cc1nc2sc(C(c3cccc(F)c3)N3CCN(c4ccccc4)CC3)c(O)n2n1 (centres undefined),.,-1.6
CCOC(=O)c1cnc2ccc(OCC)cc2c1Cl,-0.29,0.05
CCCCNC(=O)c1cc2c(s1)-c1cc(C)sc1CC2,-1.4,.
CCOC(=O)N1CCC(NC(=O)CN2C(=O)CSc3ncccc32)CC1,2.2,-0.35
O=C(CSc1nc(-c2ccccc2F)nc2cc(=O)[nH]n12)NCc1ccccc1Cl,0.05,.
COCCNC(=O)C1(C)CCC(=O)N1c1ccc2c(c1)OCCO2 (centres undefined),0.93,.
CCCc1[nH]nc2c1C(c1c(OC)cc(OC)cc1OC)C(C#N)=C(N)O2 (centres undefined),0.28,-1.8
COc1ccc(NC(=O)c2oc3ccc4c(c3c2C)C(=O)CC2(CCCC2)O4)cc1OC,0.6,-0.42
COCCn1c(SCc2ccc(C)cc2)nnc1-c1c[nH]c2ccccc12,.,-0.29
Nc1nonc1-c1nc2ccccc2n1Cc1ccc(-c2nn[nH]n2)cc1,0.49,1.1
CC(C)(C)c1ccc(C2c3c([nH][nH]c3=O)CC(C)(O)C2C(=O)OCc2ccccc2)cc1 (centres undefined),1.7,-1.7
O=C1SCC1(c1ccccc1)c1ccccc1,.,-0.28
O=C(O)c1cc([N+](=O)[O-])ccc1Oc1cncc(Cl)c1,.,-2.3
Cc1cc2c(cc1NS(=O)(=O)c1ccc(C(C)(C)C)cc1)n(C)c(=O)n2C,0.22,.
CCOC(=O)CNC(=O)Cn1cnc2c1c(=O)n(C)c(=O)n2C,0.35,0.86

Screening data as filed in PubChem BioAssay.

Outcome played no part in choosing rows; overall some 0.94% were active at least once.
